# Screening data from PubChem BioAssay.
# Six1-Eya2 blk = blocks human Six1 binding to Eya2 | hit rate 0.56% among 360,000 | activity change, % (test concentration not listed) | AID 651725 | AlphaScreen GST-Six1/His-Eya2 binding, biochemical; active compounds read low; control for the full effect not named in the record | Q15475+O00167; in the data active = activity change below about -65%; inconclusive = about -30% to -65%; inactive = above about -30%; also: % is scaled to controls: 0 for no effect and ±100 for the full control effect
#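 AlphaScreen luminescence read after one hour at 37 °C in darkness. Pin-transferred compounds met GST-Six1 and His-Eya2 protein (5X stock 250 nM/500 nM) plus glutathione donor and Ni-chelate acceptor beads (5X, 50 ug/mL).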
# TRPV1 PAM = enhances activation of the human vanilloid receptor TRPV1; potentiation, % at 8.33 µM; hit rate 0.02% among 320,000; Q8NER1; TRPV1-expressing cells, Fluo-8 calcium influx, capsaicin EC20 potentiation; host cell line not named in the record; control for the full effect not named in the record; active means potentiation above 80%; inconclusive means 30% to 80%; inactive means below 30%; also: 0% is about no effect
# Target sequence (Q8NER1 whole entry, looked up): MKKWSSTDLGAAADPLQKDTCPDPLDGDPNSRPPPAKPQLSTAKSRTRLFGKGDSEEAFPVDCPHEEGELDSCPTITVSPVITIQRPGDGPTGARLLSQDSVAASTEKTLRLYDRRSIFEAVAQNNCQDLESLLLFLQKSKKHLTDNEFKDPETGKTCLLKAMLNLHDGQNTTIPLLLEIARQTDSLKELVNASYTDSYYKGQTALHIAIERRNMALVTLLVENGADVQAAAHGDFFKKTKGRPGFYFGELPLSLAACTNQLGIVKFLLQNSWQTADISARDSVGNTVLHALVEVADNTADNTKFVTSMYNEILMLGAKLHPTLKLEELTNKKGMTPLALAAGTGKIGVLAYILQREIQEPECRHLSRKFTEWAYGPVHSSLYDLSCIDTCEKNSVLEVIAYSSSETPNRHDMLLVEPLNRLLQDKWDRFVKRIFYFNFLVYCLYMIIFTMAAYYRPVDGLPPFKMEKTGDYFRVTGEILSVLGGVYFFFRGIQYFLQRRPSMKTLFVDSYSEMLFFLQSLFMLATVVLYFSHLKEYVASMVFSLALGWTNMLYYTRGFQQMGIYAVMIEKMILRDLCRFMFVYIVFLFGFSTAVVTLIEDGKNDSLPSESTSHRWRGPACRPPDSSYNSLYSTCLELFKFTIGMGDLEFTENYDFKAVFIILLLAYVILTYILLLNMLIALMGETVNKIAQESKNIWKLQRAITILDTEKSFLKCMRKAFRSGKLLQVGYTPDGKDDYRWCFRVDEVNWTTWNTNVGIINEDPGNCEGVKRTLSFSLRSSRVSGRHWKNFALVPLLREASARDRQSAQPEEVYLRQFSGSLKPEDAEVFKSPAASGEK
#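 Fluo-8 calcium influx in TRPV1-expressing cells, kinetic read (ex 480/em 520 nm). Compound added and read 3 min for agonist activity, followed by capsaicin at EC20 final and 2 min further read for enhancement.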
# TRPML1 agonist = agonists of human TRPML1 channel. Q9GZU1. TRPML1-expressing cells, Ca2+ dye fluorescence, FDSS; host cell line not named in the record; reference of the full effect not given here. activation, % (test concentration not listed). hit rate 0.12% among 410,000. AID 624414; in the data active = activation above about 50%; inconclusive = about 30% to 50%; inactive = below about 30%; also: 0% is about no effect; the text of the record puts the active cut at 80%
#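 Tet-induced TRPML1-DL cells, 1,500 per well, cultured overnight, were loaded with a no-wash Ca2+ dye for 45–90 min. Calcium fluorescence was recorded on the FDSS for 110 s after compound addition, before the EC80 agonist (4 uM 54-4) was added.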
# TRPML1 inh = blocks the human TRPML1 channel | hit rate 0.02% among 390,000 | activity change, negative = inhibition, % (concentration not given with the values) | TRPML1-inducible cells, Ca2+ dye fluorescence, FDSS; active compounds read low; inhibition of EC80 agonist-evoked calcium signal | Q9GZU1; in the data active means activity change below about -50%; inconclusive means about -30% to -50%; inactive means above about -30%;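 also: stimulus is agonist 54-4 at its EC80 concentration; % is scaled to controls: 0 for no effect and ±100 for the full control effect; the text of the record puts the active cut at -80%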
#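 Tet-induced TRPML1-DL cells loaded with Ca8 no-wash calcium dye were read kinetically on FDSS. Compound addition was followed by EC80 agonist 54-4 (4 uM final); inhibition was read over 110 s.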
# D2 PAM = positive allosteric modulators of human D2 dopamine receptor; hit rate 0.23% among 360,000; potentiation, % (no concentration beside the values); P14416; DiscoveRx D2 beta-arrestin cells, luminescence, 90 min; 100% = 57 uM dopamine signal; active = potentiation of 50% or more; inconclusive = 30% to 50%; inactive = 30% or less;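 also: compound concentration not given in the record; tested on top of an EC20 dose of dopamine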
#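 PathHunter D2 cells, attached overnight at 37 deg C, received compound in DMSO plus dopamine at EC20 (50 nM final) for 90 min at 37 deg C. Beta-arrestin recruitment was read as luminescence after 1 h with detection reagent at ambient temperature.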
# CtBP-E1A blk = inhibitors of CtBP/E1A interaction | AlphaScreen GST-E1A/His-CtBP binding, 1536-well; active compounds read low; control for the full effect not named in the record | activity change, % (concentration not given with the values) | hit rate 0.49% among 340,000; in the data active means activity change below about -65%; inconclusive means about -30% to -65%; inactive means above about -30%; also: % is scaled to controls: 0 for no effect and ±100 for the full control effect
#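 AlphaScreen with 125 nM GST-E1A and 125 nM His-CtBP (5X stocks) in Tris pH 8.0, 300 mM NaCl, BSA, Tween 20, TCEP. Compounds preincubated 2 h at 37 deg C, then glutathione donor/nickel acceptor beads added for 1 h at 37 deg C in dark.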
# Active calls of the source: *; u = inconclusive; x = not tested or not shown.
item	SMILES	Six1-Eya2 blk	TRPV1 PAM	TRPML1 agonist	TRPML1 inh	D2 PAM	CtBP-E1A blk
1	C=CCOC(=O)C(C#N)c1nc2ccccc2nc1N1CCN(c2ccccc2OC)CC1 (stereo not given)	u	-8.5	1.6	46.3	-31.0	-23.2
2	COc1ccc(CCN2C(=O)COc3ccccc3C2C(=O)Nc2ccc3c(c2)OCCO3)cc1OC (stereo not given)	-3.8	x	-0.8	x	x	0.1
3	CCN(CC)S(=O)(=O)c1ccc(N2CCOCC2)c(NC(=O)C2COc3ccccc3O2)c1 (stereo not given)	0.5	21.6	-0.7	-0.8	-6.2	0.1
4	O=C(NCCN1CCN(c2cccc(Cl)c2)CC1)c1cccn2c(=O)c3ccccc3nc12	2.5	x	x	x	-16.2	-3.3
5	COc1ccc(NS(=O)(=O)c2c(C)[nH]c(C)c2C(=O)N2CCCCC2)cc1Cl	-0.7	2.2	0.1	-10.7	2.2	4.2
6	Cc1cccc(COC(=O)C(Cc2ccccc2)NC(N)=O)c1 (stereo not given)	-2.1	16.4	1.0	-4.3	-1.4	8.2
7	COc1ccc(C(=O)NCC(C)CN(C)C)cc1 (stereo not given)	0.5	6.4	1.3	10.4	24.5	4.5
8	CC1=C(C(=O)Nc2ccc(Br)cc2)C(c2ccco2)NC(=O)N1 (stereo not given)	-1.0	15.4	0.0	-3.5	-8.8	5.1
9	O=C(O)c1ccccc1C(=O)NCC(O)c1ccccc1 (stereo not given)	1.9	6.2	1.3	-21.8	-0.1	7.7
10	COc1ccc(-c2cc(-c3ccco3)[nH]c(=O)c2C#N)cc1OC	-6.8	x	0.1	30.1	-5.6	0.6
11	O=S(=O)(c1cc(-c2nnc(-c3ccc(Br)cc3)o2)ccc1Br)N1CCCCCC1	-5.2	5.3	-0.4	82.3	9.0	-5.2
12	O=C(Nc1cccnc1)c1ccc2snnc2c1	1.0	-38.4	-0.7	-2.0	-13.0	4.4
13	CCN(CC)CCOC(=O)c1ccc(NC(=O)CSc2nnc(-c3cccs3)n2CC)cc1	-1.9	x	1.5	1.8	74.3*	-3.3
14	O=C1C=C(c2cccc(CO)c2)C[C@@H](c2ccc(F)cc2)C1	5.3	-14.2	-0.3	31.2	-3.8	-0.7
15	CC(C)=NOc1nc(NC(=O)NS(=O)(=O)c2ccccc2Cl)nc(N(C)C)n1	-0.3	x	-0.4	8.3	7.4	7.4
16	CN(C(=O)CSc1nc(C2CC2)n(-c2ccccc2)n1)C1CCS(=O)(=O)C1 (stereo not given)	8.5	-5.2	0.3	-4.9	-4.0	-10.9
17	COC(=O)[C@H](Cc1ccc(O)cc1)NC(=O)Cn1ccc(NC(=O)OCc2ccccc2)nc1=O	-0.2	x	-0.2	-16.0	-18.1	0.2
18	O=S(=O)(Cc1ccccc1)Nc1ccccc1Br	-16.0	28.3	0.1	-1.0	-4.9	-2.9
19	CC(C)(C)C(=O)N1NC(=Nc2ccccc2)SC1(C)C	1.3	-17.0	0.7	-1.3	-19.4	-2.7
20	COc1ccc(NC(=O)CSc2nnc(-c3ccccn3)n2N)cc1	u	-5.8	1.5	-23.6	-2.1	-29.1
21	Cc1ccc(C)c2[nH]c(=O)c(CN(Cc3cccs3)C(=S)NCc3ccco3)cc12	0.8	-17.9	0.1	6.7	-8.1	-7.6
22	O=C1NC[C@H](CCCCN2CCN(CCC3CCCCC3)C(=O)C2=O)N(CCc2ccc(O)cc2)C1=O	1.7	x	-0.5	x	x	1.6
23	CC(=O)Nc1cccc(C(=O)OCC(=O)NNC(=O)c2ccc([N+](=O)[O-])cc2)c1	-4.7	-5.6	1.0	-4.9	-19.0	4.3
24	Cc1cc(C(=O)NCCCN2CCN(c3cc(Cl)ccc3C)CC2)n(-c2ccccc2)n1	-10.6	x	0.3	-9.5	-10.2	-4.1

# An excerpt of these results, with two lines to a compound.
# Below each SMILES: Six1-Eya2 blk | TRPV1 PAM | TRPML1 agonist | TRPML1 inh | D2 PAM | CtBP-E1A blk
13: CCN(CC)CCOC(=O)c1ccc(NC(=O)CSc2nnc(-c3cccs3)n2CC)cc1
    -1.9 | x | 1.5 | 1.8 | 74.3* | -3.3
14: O=C1C=C(c2cccc(CO)c2)C[C@@H](c2ccc(F)cc2)C1
    5.3 | -14.2 | -0.3 | 31.2 | -3.8 | -0.7
15: CC(C)=NOc1nc(NC(=O)NS(=O)(=O)c2ccccc2Cl)nc(N(C)C)n1
    -0.3 | x | -0.4 | 8.3 | 7.4 | 7.4
16: CN(C(=O)CSc1nc(C2CC2)n(-c2ccccc2)n1)C1CCS(=O)(=O)C1 (stereo not given)
    8.5 | -5.2 | 0.3 | -4.9 | -4.0 | -10.9
17: COC(=O)[C@H](Cc1ccc(O)cc1)NC(=O)Cn1ccc(NC(=O)OCc2ccccc2)nc1=O
    -0.2 | x | -0.2 | -16.0 | -18.1 | 0.2
18: O=S(=O)(Cc1ccccc1)Nc1ccccc1Br
    -16.0 | 28.3 | 0.1 | -1.0 | -4.9 | -2.9
19: CC(C)(C)C(=O)N1NC(=Nc2ccccc2)SC1(C)C
    1.3 | -17.0 | 0.7 | -1.3 | -19.4 | -2.7
20: COc1ccc(NC(=O)CSc2nnc(-c3ccccn3)n2N)cc1
    u | -5.8 | 1.5 | -23.6 | -2.1 | -29.1
21: Cc1ccc(C)c2[nH]c(=O)c(CN(Cc3cccs3)C(=S)NCc3ccco3)cc12
    0.8 | -17.9 | 0.1 | 6.7 | -8.1 | -7.6
22: O=C1NC[C@H](CCCCN2CCN(CCC3CCCCC3)C(=O)C2=O)N(CCc2ccc(O)cc2)C1=O
    1.7 | x | -0.5 | x | x | 1.6
23: CC(=O)Nc1cccc(C(=O)OCC(=O)NNC(=O)c2ccc([N+](=O)[O-])cc2)c1
    -4.7 | -5.6 | 1.0 | -4.9 | -19.0 | 4.3
24: Cc1cc(C(=O)NCCCN2CCN(c3cc(Cl)ccc3C)CC2)n(-c2ccccc2)n1
    -10.6 | x | 0.3 | -9.5 | -10.2 | -4.1

# Other structures:
item	SMILES	Six1-Eya2 blk	TRPV1 PAM	TRPML1 agonist	TRPML1 inh	D2 PAM	CtBP-E1A blk
25	CN1OC[C@@H]2CN(C(=O)c3ccco3)[C@H](c3ccc(-c4ccc(C#N)cc4)cc3)C[C@@H]21	-5.4	x	0.2	-12.4	-0.9	-22.7
26	COc1ccc(N(CC(=O)NCc2cccc(OC)c2)S(=O)(=O)c2c(C)noc2C)cc1	-2.7	-4.7	0.6	13.0	-21.6	6.5
27	Cc1ccc(/C=N/N2CCN(Cc3cccc4ccccc34)CC2)s1	-3.4	24.5	-1.1	9.0	-3.2	3.8
28	CC(NC(=O)C(=O)NCCN1CCN(C(=O)c2ccccc2Br)CC1)c1ccccc1 (stereo not given)	-0.2	7.9	-0.6	-0.2	-4.1	0.2
29	Cc1ccccc1-c1cc(-c2ccccc2O)n[nH]1	-2.8	-2.4	-1.3	9.6	-6.4	3.8
30	S=c1[nH]nc(NC2CCCCC2)s1	17.6	x	0.3	-12.0	-12.3	2.6
31	O=C(O)c1cccc(S(=O)(=O)Nc2ccc3[nH]c(=O)[nH]c3c2)c1	0.3	-6.7	0.1	-7.4	5.7	-22.2
32	COc1ccnc(Nc2ccc(C)c(C)c2)c1C#N	0.7	13.5	0.1	0.3	-13.5	5.2
33	CCC(=O)c1ccc(OCC(=O)Nc2ccc(S(=O)(=O)Nc3cc(C)nc(C)n3)cc2)cc1	1.0	x	0.4	32.9	-10.4	-0.6
34	CCNc1nc(NC(C)CC)nc(Oc2ccc(=O)[nH]n2)n1 (stereo not given)	22.2	0.2	-0.1	-20.8	-1.6	48.0
35	COc1ccc(C(=O)NC(=O)COC(=O)CCS(=O)(=O)c2ccc(C)cc2)cc1	-0.8	14.4	-0.3	-1.3	-2.7	-0.4
36	O=C(/C=C/c1ccccc1)N1CCN(c2c(Cl)cccc2[N+](=O)[O-])CC1	u	-20.1	1.4	47.8	-4.9	-25.1
37	CC(=O)NCCNC(=O)c1cccc(NS(=O)(=O)c2ccc3c(c2)OCCO3)c1	4.3	-5.4	-0.3	-8.3	-7.8	5.1
38	O=C(c1ccc([N+](=O)[O-])cc1Cl)N1CCN(c2ccccn2)CC1	0.7	-9.6	0.4	19.6	4.5	x
39	Cc1cc(C)n(C(=O)c2cccc([N+](=O)[O-])c2)n1	1.8	12.5	0.8	9.2	-4.5	11.7
40	Cc1nc2c(ccc3nc(NC(=O)Cc4ccccc4)sc32)s1	-3.8	12.9	-0.5	-13.1	2.7	-16.3
41	Cc1cc(=O)[nH]c(SCC(=O)Nc2nc3c(s2)CCCC3)n1	-2.4	x	1.8	-2.0	-6.6	6.7
42	Cc1cc(C)cc(Oc2coc3cc(OC(=O)c4cccnc4)ccc3c2=O)c1	-5.2	-1.2	-0.1	1.6	-1.8	16.7
43	O=C(c1ccc2nc(-c3ccccc3)c(-c3ccccc3)nc2c1)N1CCCCC1	-19.8	19.5	0.1	7.2	-11.7	x
44	Cc1noc(C)c1COC(=O)CCc1ccc(S(=O)(=O)N2CCCCC2)cc1	-2.0	28.3	-1.2	-4.4	2.1	0.9
45	CC(C)N(C(=O)COC(=O)c1ccc(Cl)nc1)C(C)C	-3.0	-6.2	1.8	-8.9	-6.8	0.0
46	N#CC(C#N)=C1c2cc(S(N)(=O)=O)ccc2-c2ccc(S(N)(=O)=O)cc21	u	-4.1	0.1	36.1	-14.4	-13.2
47	O=C(CSc1nnc(-c2ccco2)o1)Nc1cccc([N+](=O)[O-])c1	1.6	-0.3	0.1	-6.8	22.0	11.6
48	Cc1noc(C)c1COc1ccc(C(=O)OCc2nnc(-c3ccc(Cl)cc3)o2)cc1	-0.1	-9.5	10.1	19.3	10.4	2.0
49	C=CC[N+]1(CC(=O)NCc2ccc(NC(C)=O)cc2)CCOCC1	4.2	2.3	-0.3	-8.3	-5.4	0.7
50	O=C(c1ccccc1)c1ccc(Oc2ccc([N+](=O)[O-])cc2[N+](=O)[O-])cc1	-7.6	x	-0.8	32.9	8.2	-0.2
51	COc1cccc(/C=N/NC(=O)c2ccoc2C)c1	-1.0	-20.5	-0.1	-6.5	-3.6	0.3
52	COc1ccccc1C(=O)Nc1ccccc1C(=O)NCc1ccco1	-11.1	-16.9	1.3	-6.9	-7.0	-14.3
53	Cc1nnc(C)c2c(C)n(N)c(C)c12	-1.2	-5.9	-0.5	-4.4	-13.2	x
54	COC(=O)c1ccc2c(=O)[nH]c(CCl)nc2c1	0.0	0.9	0.6	-9.1	-5.7	8.8
55	C=CCn1c(O)c(N=Nc2ccccc2O)c2ccccc21	-16.7	-2.2	10.2	32.0	-0.6	-15.2
56	N#C/C(=C\c1coc2ccc(O)cc2c1=O)C(=O)Nc1nc2ccccc2s1	-74.7*	-9.4	72.4*	-21.6	0.2	-87.1*
